Assay outcomes as filed in PubChem BioAssay.
Menin MLL FP FL: qHTS Assay for Inhibitors Targeting the Menin-MLL Interaction in MLL Related Leukemias: Competition With Fluorescein Labeled MLL-derived Peptide. Fluorescence polarization, fluorescein-MLL peptide displacement from menin. 290,000 tested, under 10 active. AID 1766, 2009. FP activity change, % at 61.4 µM; inconclusive = falling polarisation curve, or a change in total fluorescence; inactive = total fluorescence flat and polarisation flat or rising; no compound was filed as active; the % refers to the polarisation; negative = inhibition;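 further: % of control where 0% means no effect; inhibitors lower the polarisation; unlabelled MLL peptide was the positive control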
ClpP mod: qHTS Assay for Activators of ClpP; ATP-dependent Clp protease proteolytic subunit (Bacillus subtilis (strain 168)), P80244; purified B. subtilis ClpP, FRET peptide cleavage, 20 min; Potency, µM (series often up to 57.5 µM), inactives show top-dose activity change, negative = active; 340,000 compounds, 1.9% hits; AID 651965, 2013; active = well fitted falling curve with a large enough effect; inconclusive = small, poorly fitted or top-dose-only effect; inactive = no such curve, though single readings can be large or run the other way; further: potency means the concentration at half of the fitted maximal effect; the source files actives as falling curves though it sought activators and does not explain the sign; nearly all actives have a fitted effect of over 65% in size; many hits overshoot -100%
Target sequence (P80244 whole entry, looked up): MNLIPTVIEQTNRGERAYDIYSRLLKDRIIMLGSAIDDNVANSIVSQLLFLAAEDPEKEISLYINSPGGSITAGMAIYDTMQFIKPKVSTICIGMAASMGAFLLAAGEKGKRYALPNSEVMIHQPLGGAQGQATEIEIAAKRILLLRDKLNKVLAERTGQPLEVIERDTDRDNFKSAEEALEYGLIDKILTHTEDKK
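Purified B. subtilis ClpP, 10 microg/mL final in Tris/HCl pH8 with KCl, BSA, glycerol and Tween-20, cleaved an Abz/nitrotyrosine-quenched decapeptide. Fluorescence (ex 320, em 430) was read at 0 and 20 min at room temperature. Delta was normalized to 5.8 microM ADEP and DMSO/no-enzyme controls.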
TRPV1 PAM: HTS Assay for Compounds that Act as Potentiators of the Vanilloid Receptor 1; Transient receptor potential cation channel subfamily V member 1 (Homo sapiens), Q8NER1; TRPV1-expressing cells, Fluo-8 calcium influx, capsaicin EC20 potentiation; host cell line not named in the record; control for the full effect not named in the record; potentiation, % at 8.33 µM; 320,000 compounds, 0.02% hits; active means potentiation above 80%; inconclusive means 30% to 80%; inactive means below 30%; further: 0% is about no effect
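Cells expressing TRPV1 were dye-loaded with Fluo-8 and read kinetically: 10 s baseline, 3 min after compound (agonist portion), then 2 min after EC20 capsaicin (allosteric enhancer portion). Calcium-bound dye fluorescence at 480/520 nm.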
TRPML1 ag: qHTS for Agonists of the Human Mucolipin Transient Receptor Potential 1 (TRPML1); TRPML1-expressing cells, Ca2+ dye fluorescence, FDSS; host cell line not named in the record; reference of the full effect not given here; AID 624414, 2012; 410,000 compounds, 0.12% hits; activation, % (concentration not given with the values); in the data active = activation above about 50%; inconclusive = about 30% to 50%; inactive = below about 30%; further: 0% is about no effect; the text of the record puts the active cut at 80%
Target sequence (Q9GZU1 whole entry, looked up): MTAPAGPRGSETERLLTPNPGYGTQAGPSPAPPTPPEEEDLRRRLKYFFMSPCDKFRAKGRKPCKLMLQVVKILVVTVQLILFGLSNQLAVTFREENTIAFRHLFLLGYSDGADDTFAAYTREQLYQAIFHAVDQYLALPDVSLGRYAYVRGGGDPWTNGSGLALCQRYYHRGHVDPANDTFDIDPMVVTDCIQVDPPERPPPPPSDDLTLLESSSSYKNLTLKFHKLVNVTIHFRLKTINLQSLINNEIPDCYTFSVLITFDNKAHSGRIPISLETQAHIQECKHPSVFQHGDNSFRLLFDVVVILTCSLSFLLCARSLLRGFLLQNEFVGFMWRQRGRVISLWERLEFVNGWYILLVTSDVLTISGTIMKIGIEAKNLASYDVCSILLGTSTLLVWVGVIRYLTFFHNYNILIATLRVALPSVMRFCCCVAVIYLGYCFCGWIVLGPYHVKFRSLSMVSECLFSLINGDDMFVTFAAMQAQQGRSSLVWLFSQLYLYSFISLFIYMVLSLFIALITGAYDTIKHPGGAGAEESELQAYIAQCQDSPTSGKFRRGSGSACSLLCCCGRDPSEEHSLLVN
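In this qHTS format, compounds were pin-transferred onto Ca8-dye-loaded TRPML1-DL cells induced with Tet overnight, and intracellular Ca2+ fluorescence was recorded kinetically for 110 s after a 10 s baseline. A subsequent 4uM final 54-4 (EC80) addition followed by a second 110 s read served as the antagonist phase.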
PINK1 modulator: A Quantitative High throughput Screen to Identify Chemical Modulators of PINK1 Expression; 410,000 compounds, 0.2% hits; PINK1 immunofluorescence, high-content cytometry, 24 h; AID 624263, 2012; Potency, µM (titrated, usually from 76.6 µM), without a hit: at the top dose activation (PINK1 increase), usual class: activators; active = well fitted activation curve with a large enough effect; inconclusive = small, poorly fitted or top-dose-only effect; inactive = flat fitted curve, though single readings scatter; cell line not stated here;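 further: potency means the concentration at half of the fitted maximal effect; % of control where 0% means no effect; nearly all actives have a fitted effect of over 65% in size; a mitochondrial uncoupler was the plate control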
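Cells are seeded, rested 12 hours, then given compound at five concentrations or DMSO for 24 hours. After fixation, blocking and antibody staining, PINK1 amount and mitochondrial localization are scored; CCCP serves as control.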
Sfp PPTase inh: qHTS Assay for Inhibitors of Bacillus subtilis Sfp phosphopantetheinyl transferase (PPTase); Biochemical Sfp PPTase activity, qHTS; Potency, µM, for the others: max response, negative = inhibition, hits mostly inhibitors; 310,000 compounds, 3.5% hits; AID 1490, 2009; 4'-phosphopantetheinyl transferase ffp (Bacillus subtilis), Q9F4F7; active means well fitted inhibition curve with a large enough effect; inconclusive means small, poorly fitted or top-dose-only effect, or another doubt; inactive means no such curve, though single readings can be large or run the other way;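 further: the enzyme is Sfp with the accession as filed and its product quenches rhodamine fluorescence; potency means the concentration at half of the fitted maximal effect; 0% = enzyme reaction without inhibitor and -100% = no enzyme wells; top concentration of the series not given in the record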
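With Hepes-Na pH 7.6 buffer containing 10 mM MgCl2, Sfp (15 nM) modified BHQ-2-YbbR (12.5 uM) using rhodamine-CoA (5 uM). Two reads 30 minutes apart at 525/598 nm yielded each well's rate.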
TRPML1 blocker: qHTS for Inhibitors of the Human Mucolipin Transient Receptor Potential 1 (TRPML1); 390,000 compounds, 0.02% hits; AID 624415, 2012; TRPML1-inducible cells, Ca2+ dye fluorescence, FDSS; active compounds read low; inhibition of EC80 agonist-evoked calcium signal; activity change, negative = inhibition, % (test concentration not listed); in the data active means activity change below about -50%; inconclusive means about -30% to -50%; inactive means above about -30%;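 further: stimulus is agonist 54-4 at its EC80 concentration; on the % scale 0 is the no-effect control and ±100 the full control effect; compound concentration not given in the record; the text of the record puts the active cut at -80%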
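Calcium fluorescence in TRPML1-DL cells induced overnight with Tet: a 110 s read after compound pin addition, then a 110 s antagonist read after challenge with 54-4 at 4 uM final (EC80).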
Numbers without * were called inactive; ? = inconclusive; / = no result given; & = joins results of further samples; [ ] = remark or other dose.

Sequence of screens: Menin MLL FP FL, ClpP mod, TRPML1 blocker, TRPML1 ag, Sfp PPTase inh, TRPV1 PAM, PINK1 modulator
Cc1cccc(Nc2nnc(SCC(=O)Nc3ccccc3[N+](=O)[O-])s2)c1
 : 4.1, -25%, 0, 1.7, 8%, 11, 13%
NS(=O)(=O)c1ccc(NC(=S)Nc2nn(Cc3ccc(Cl)cc3Cl)cc2Cl)cc1
 : 10, -2.7%, 20, 2.4, 8%, 0, 2.2%
O=C(c1ccc([N+](=O)[O-])cc1)N1CCN(C(=O)C2CCCCC2)CC1
 : 2.4, -2.1%, 2, -0.4, -1%, -2, 0.4%
COc1ccccc1NC(=O)Nc1nnc(CC(=O)Nc2cccc(C)c2)s1
 : 0.9, -4.8%, -13, 0.0, -17%, 1, -0.3%
CCN(CC)c1ccc(/C=C/c2ccc3ccccc3n2)cc1
 : /, -1.0%, /, 0.5, /, /, ?
Cn1c(NNC(=O)C2CCCCC2)cc(=O)n(C)c1=O
 : -1.1, 0.6%, -6, 0.2, 18%, -3, -0.6%
Cc1ccc(N2C(=O)C(Cc3ccc(O)cc3)NC2=S)cc1C (configuration not stated)
 : -1.5, -3.5%, 5, -0.4, 5%, -7, 2.5%
Cc1cc2oc(C(=O)Nc3nc(-c4ccccc4)ns3)c(C)c2cc1Cl
 : /, -4.9%, -24, 1.1, /, /, 0.4%
Cc1c(Nc2ccc(C=O)cc2)c(=O)n(-c2ccccc2)n1C
 : 11, /, -5, -0.5, 19%, 4, -1.5%
CCOC(=O)c1c(NC(=O)c2cc(-c3ccc(Cl)cc3)on2)sc2c1CCCC2
 : /, 0.1%, 8, 0.0, /, /, 0.3%
CCC1(C)Cc2ccccc2-c2nc(SC)[nH]c(=O)c21 (configuration not stated)
 : -2.2, /, 9, 2.6, -4%, -6, 12%
CC1CN(C(=O)c2ccc(NS(=O)(=O)c3cccc(Cl)c3)cc2)CC(C)O1 (configuration not stated)
 : -3.3, -2.6%, -7, 1.0, 14%, -2, 0.1%
COc1cccc(NC(=O)CCc2nc(-c3cccs3)no2)c1
 : 0.6, 1.2%&-2.1%, -2&-10, 0.6&0.3, 11%, 0, -0.1%&0.2%
Cc1ccc(C(=O)NC2CCN(CC(=O)Nc3ccccc3Cl)CC2)cc1
 : 1.5, /, 13, 1.1, 13%, -6, -1.6%
COc1ccc(C(=O)/C=C/C(=O)N(CC(=O)NC2CCCCC2)Cc2cccs2)c(O)c1
 : -0.1, 5.2%, -1, -0.1, 3.2µM*, 18, -1.0%
CCN1C(=O)c2cccc3c(NC(=O)c4ccc(OC)c(OC)c4)ccc1c23
 : -1.3, 0.9%, 12, 0.0, 13%, ?, 4.7%
COc1ccc(C(C(=O)NC2CCCC2)N(Cc2cccs2)C(=O)c2ccn[nH]2)cc1OC (configuration not stated)
 : 1.0, 0.2%, 1, -1.1, 7%, 6, 3.7%
CCCCC(=O)N=c1sc2cc([N+](=O)[O-])ccc2n1C
 : -4.3, /, -1, -0.3, 8%, 25, 0.4%
O=C(NCc1ccc(C(F)(F)F)cc1)C1CC(c2ccc(C(F)(F)F)cc2)=NO1 (configuration not stated)
 : /, 1.0%, 37, 4.5, /, /, 3.4%
CC1(c2ccc3c(c2)OCCCO3)NC(=O)N(CC(=O)Nc2cccc(C#N)c2)C1=O (configuration not stated)
 : /, -0.7%, -6, 0.6, /, 16, 0.9%

An excerpt from above, limited to Sfp PPTase inh.
SMILES	Sfp PPTase inh
COc1cccc(NC(=O)CCc2nc(-c3cccs3)no2)c1	11%
Cc1ccc(C(=O)NC2CCN(CC(=O)Nc3ccccc3Cl)CC2)cc1	13%
COc1ccc(C(=O)/C=C/C(=O)N(CC(=O)NC2CCCCC2)Cc2cccs2)c(O)c1	3.2µM*

The listing continues:
Sequence of screens: Menin MLL FP FL, ClpP mod, TRPML1 blocker, TRPML1 ag, Sfp PPTase inh, TRPV1 PAM, PINK1 modulator
O=C(O)c1ccc(NC(=O)c2cn(-c3ccccc3)nc2-c2cccc(Cl)c2)cc1
 : 2.4, /, 12, 0.4, -5%, -5, 0.5%
Cc1ccc(N(CC(=O)Nc2cc(C)cc(C)c2)S(=O)(=O)c2c(C)noc2C)cc1
 : -1.7, -0.4%, 11, 1.0, 15%, 5, 15%
O=C(CN1CCCC1)NC(=O)NC1CCCC1
 : 1.8, /, 19, 1.2, 13%, 6, -0.2%
O=C(Nc1ccc(O)c2c(=O)cc(-c3ccccc3Cl)oc12)c1ccccc1Cl
 : -1.0&1.5, -0.3%, -9, 0.8, -22%&1%, 6, 4.3%
CCCCn1c(N)c(N(CCC(C)C)C(=O)c2cccc(-n3cnnn3)c2)c(=O)[nH]c1=O
 : /, /, -13, 0.4, /, 14, -0.2%
Cc1ccc(SCC(=O)Nc2ccc3c(c2)C(=O)NC3=O)cc1
 : -1.1, /, -10, 0.5, 19%, -7, 1.8%
COc1ccc(N2CCN(C(=O)Nc3cn(CC(C)C)c(=O)c4ccccc34)CC2)cc1
 : /, -22%, 1, 1.1, /, /, -5.0%
CCOC(=O)C1CCN(C(=O)Cc2cccc3ccccc23)CC1
 : 0.9, 0.7%, -21, 0.6, 3%, 13, -1.9%
NC(=S)Nc1ccc(C(F)(F)F)cc1Cl
 : 1.4, -25%, -10, -0.8, 4%, 2, 1.2%
CC(C)c1cc(C(=O)NC2CCCCC2)no1
 : 3.9, -0.5%, 11, 3.7, 4%, -9, 9.7%[38.3 µM]
CCc1ccc(C(=O)c2cn(CC(=O)Nc3cc(OC)ccc3OC)c3ccc(C)cc3c2=O)cc1
 : /, -2.1%, -16, 1.6, /, /, 2.2%
CCN1CCN(Cc2nc3c(c(=O)n(C)c(=O)n3C)n2CCCc2ccccc2)CC1
 : 3.8, /, /, /, -8%, 6, /
O=C(CCNC(=O)c1ccc([N+](=O)[O-])cc1)NNC(=O)c1ccncc1
 : /, -2.1%, -5, 0.3, 14%, 0, 0.6%
CCCc1nn(C)c(C(=O)Nc2ccc(Cl)cc2)c1Cl
 : 0.6, -4.3%, 7, -1.1, 6%, -18, 14%
Cc1cccc(C)c1NC(=O)CN(C)C(=O)CCC(=O)N1CCOCC1
 : /, 0.4%, 3, 1.4, /, /, 0.7%
COc1ccc(CNC(=O)c2ccc(-c3ccccc3)cc2)cc1OC
 : -1.7, -1.1%, 29, 1.1, -1%, -11, 11%
COc1ccc(-c2cc(C(F)(F)F)n3nc(C(=O)O)nc3n2)cc1
 : -1.1, -24%, 33, 0.0, 13%, 4, -1.3%[38.3 µM]
O=C(CCCN=C1NS(=O)(=O)c2ccccc21)OCC(=O)c1ccc(F)c(F)c1
 : /, 0.6%, 0, 16, /, -3, -1.7%
NS(=O)(=O)c1ccc(NC(=S)NC(=O)C2CCCC2)cc1
 : /, 2.1%, -12, -0.2, 0%, 5, 0.1%
CC(C)(C)c1cc(C(=S)N2CCN(CCO)CC2)cc(C(C)(C)C)c1O
 : 5.2, 0.9%, 13, 2.3, 3.2µM*, -25, 1.1%[38.3 µM]
O=C(CCCC(=O)Nc1ccc(Br)cc1)N/N=C/c1ccccc1
 : 0.7, 1.0%, -9, -0.5, 13%, 7, 0.9%
O=C(CCn1c(=O)c2ccccc2n(Cc2ccccc2)c1=O)NC1CCN(Cc2ccccc2)CC1
 : 4.3, -6.0%, 0, 0.4, 26%, -2, -0.5%
CCOC(=O)c1cc2c(=O)n3ccccc3nc2n(Cc2ccco2)c1=NC(=O)c1cc(C)cc(C)c1
 : /, 3.9%, -7, 6.5, /, /, 7.0%
COc1ccc2c(C(=O)CN3CCC(C)CC3)c[nH]c2c1
 : 9.8, 2.0%, -6, 0.0, 16%, -2, /
O=C(NCc1ccco1)/C(=C\c1cccs1)NC(=O)c1ccco1
 : 0.2, /, 9, 0.9, 4%, 11, 2.7%
CC1(C)Cc2c(C#N)c(N)sc(=S)c2CS1
 : ?, -6.1%, 7, 2.2, 16µM*, -4, 0.2%
C[C@H](CO)N1C[C@H](C)[C@@H](CN(C)C(=O)C2CCCCC2)OCc2cn(nn2)CCCC1=O
 : /, -1.1%, -1, 0.4, /, /, -0.3%
CC12CC(c3ccccc3O1)N(C(=O)c1ccco1)C(=S)N2c1ccc(F)cc1 (configuration not stated)
 : 14, 1.2%, 47, 0.5, 4%, 12, 1.3%
Cc1cc(Cl)cc(Cl)c1OCCCCN(C)C
 : 1.9, -0.1%, -20, 0.9, -7%, -5, -1.8%
CCOc1ccc(NC(=NCc2ccc3c(c2)OCO3)SC2CC(=O)N(c3ccccc3)C2=O)cc1 (configuration not stated)
 : -0.3, -1.9%, -9, 1.2, 16%, 4, 4.4%

Some of these compounds in order of the Sfp PPTase inh value, descending:
Molecule | Menin MLL FP FL | TRPML1 blocker | Sfp PPTase inh
CCCc1nn(C)c(C(=O)Nc2ccc(Cl)cc2)c1Cl | 0.6 | 7 | 6%
NS(=O)(=O)c1ccc(NC(=S)NC(=O)C2CCCC2)cc1 | / | -12 | 0%
COc1ccc(CNC(=O)c2ccc(-c3ccccc3)cc2)cc1OC | -1.7 | 29 | -1%

Not a hit list. Share with any hit: about 4.4%.
